# CDC25B-CDK2 inh: human CDC25B-CDK2/CyclinA binding inhibition. AID 1259370. 94,000 compounds, 0.72% hits. HTRF CDC25B-CDK2/CyclinA binding, anti-His/anti-Flag; stronger effect = higher value. z-score (concentration not given with the values);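 note: score is relative to mean and SD of negative controls; strong numbers were not always called active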
# TAR Tat displ: HIV-1 TAR-Tat binding disruption; z-score (no concentration beside the values); 100,000 compounds, 0.6% hits; HIV-1 TAR RNA, Tat peptide displacement FRET; stronger effect = higher value;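 note: score is relative to mean and SD of negative controls; some compounds called inactive have numbers as strong as hits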
# Starred values were filed as active, the others as inactive; nt = not tested or not shown.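 Rule for the calls: active = z-score from 3 up in half or more of its runs; inactive = the rest.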
# Order of values: CDC25B-CDK2 inh	TAR Tat displ
> CCCOc1c(Cl)cc(C(=O)O)cc1Cl
→ -0.83	nt
> CCc1noc2ncnc(N3CCCC(C(=O)NCCN4CCCC4)C3)c12 (centres undefined)
→ nt	2.4
> CC1(C)Cc2nc3[nH]c(=S)n(-c4ccccc4)c(=O)c3cc2CO1
→ -1.2	nt
> Cn1c(=O)c2c(SCC(=O)N3CCCc4ccccc43)nc(CC(C)(C)C)nc2n(C)c1=O
→ nt	-0.09
> COc1ccc(Cc2nnc(-c3ccc(F)cc3)o2)cc1OC
→ -1.2	1.8
> Cc1ccc2nc(N3CCN(c4ccccc4)CC3)c3nnnn3c2c1
→ nt	-1
> COCCCNC(=O)C1(C)CCC(=O)N1CCc1cccs1 (centres undefined)
→ nt	1.5
> c1ccc(CCNc2c3c(nc4nncn24)CCC3)cc1
→ -0.6	0.66
> CCCOc1ccc(S(=O)(=O)O)c(C)c1
→ -0.14	nt
> Cn1c(=O)c2[nH]c(-c3ccnc4ccccc34)nc2n(C)c1=O
→ -0.78	-0.11
> CSc1nc2c(c(=O)[nH]1)C(c1cc(F)cc(F)c1)CC(=O)N2 (centres undefined)
→ -0.65	0.49
> O=[N+]([O-])c1cc(Cl)c(N2CCOCC2)cc1N1CCOCC1
→ -0.3	nt
> Cc1nnsc1C(=O)Nc1ccc2c(c1)C(=O)OC2
→ -0.52	nt
> CC(=O)O[C@H]1C[C@@H](OC(C)=O)C(C)(C)C2C[C@@H](O)[C@]3(C)C(CC[C@@]4(C)[C@H](c5ccoc5)OC(=O)[C@H]5O[C@]543)[C@]21C (some centres undefined)
→ nt	2
> CC(=O)N1c2ccc(S(=O)(=O)Nc3c(C)cc(C)cc3C)cc2CC1C (centres undefined)
→ nt	0.53
> Cn1c(SCC(=O)c2ccc(Cl)cc2)nnc1-c1ccc2c(c1)OCO2
→ nt	0.41
> COc1ccc(-c2nnc3c4cccc5cccc(c54)n23)cc1
→ -0.5	nt
> O=S(=O)(c1cnc[nH]1)N1CCN(Cc2noc3ccccc23)CC1
→ nt	7.4
> O=C(NCCCN1CCCCCC1)c1ccc2c(c1)NC(=O)C(N1CCOCC1)S2 (centres undefined)
→ -0.51	nt
> COC(=O)c1cc2oc3ccccc3c2n1CC(=O)N(C)c1ccccc1
→ -0.27	0.61

# Next part
# Order of values: CDC25B-CDK2 inh	TAR Tat displ
> CCNc1nc2ccc(Cl)cc2nc1NCC
→ -1.2	nt
> O=C(CCCn1ncn2c(cc3occc32)c1=O)NCc1ccc(F)cc1
→ -0.07	-2.4
> O=C(Nc1ccc2c(c1)OCCO2)c1ccc(N2CCSc3ncccc32)s1
→ nt	-0.25
> CC1(C)CCC=[N+]1[O-]
→ -2.2	nt
> O=C(Cn1nc(-c2ccncc2)ccc1=O)N1CCc2ccccc21
→ nt	-1.5
> CSC(=CC(=O)c1ccc(Cl)cc1)SC
→ -1.6	nt
> Cc1ccc(Nc2nc(Oc3ccc(=O)[nH]n3)nc(N3CCOCC3)n2)cc1
→ -0.68	-0.18
> Cc1c(Cl)cccc1NS(=O)(=O)c1cn(C)c(C)n1
→ nt	0.46
> C=CCn1c(=S)sc2c(Sc3nnc(-c4ccco4)o3)ncnc21
→ -0.6	nt
> CCOC(=O)c1sc(=S)n(-c2ccc(Cl)cc2)c1C
→ -3.3	-0.41
> COc1ccc(Nc2cc(-n3nc(C)cc3C)ncn2)cc1
→ -1.1	-0.32
> COCCCNC(=O)CCCc1nnc2n(C)c(=O)c3sccc3n12
→ nt	-1.8
> CC(C)n1c(SCC(=O)Nc2ccccc2F)nc2c(oc3ccccc32)c1=O
→ 0.57	1.3
> NC(=O)CSc1ncc2c(n1)-c1ccccc1N(Cc1cccc(F)c1)S2(=O)=O
→ nt	-0.53
> O=C(O)C1CCCCC1C(=O)Nc1ccc(O)cc1 (centres undefined)
→ -1.1	1
> O=C(c1ccc(Cl)cc1)c1c(Cl)cc(CO)cc1Cl
→ 0.32	nt
> Cc1c(C(=O)O)sc2ncnc(NCc3ccco3)c12
→ nt	1.6
> Cc1ccc2nc(C3=C(O)CN(c4ccc(Cl)cc4F)C3=N)[nH]c2c1
→ 1.1	1.9
> Cc1ccc2nc3c(cc(C#N)c(=O)n3-c3nnc(SCc4ccc(F)cc4)s3)c(=O)n2c1
→ -4.6	-0.3
> CCOC(=O)N1CCN(C(=O)Cn2nc(CC)n3c(cc4sc(CC)cc43)c2=O)CC1
→ -2	-0.46

# Exported in CSV form: part of the list above
compound,CDC25B-CDK2 inh,TAR Tat displ
C=CCn1c(=S)sc2c(Sc3nnc(-c4ccco4)o3)ncnc21,-0.6,nt
COCCCNC(=O)CCCc1nnc2n(C)c(=O)c3sccc3n12,nt,-1.8
O=C(O)C1CCCCC1C(=O)Nc1ccc(O)cc1 (centres undefined),-1.1,1
O=C(Nc1ccc2c(c1)OCCO2)c1ccc(N2CCSc3ncccc32)s1,nt,-0.25
Cc1ccc2nc3c(cc(C#N)c(=O)n3-c3nnc(SCc4ccc(F)cc4)s3)c(=O)n2c1,-4.6,-0.3
Cc1ccc2nc(C3=C(O)CN(c4ccc(Cl)cc4F)C3=N)[nH]c2c1,1.1,1.9

# The list goes on.
# Order of values: CDC25B-CDK2 inh	TAR Tat displ
> Clc1ccc2nc(COc3ccccc3)[nH]c2c1
→ -0.46	0.71
> C=CCSc1nnc(-c2cccnc2)n1-c1ccccc1
→ -1.7	-0.92
> O=C(Cn1ncc2c1-c1ccccc1OC2)Nc1ccc(Cl)cn1
→ -0.72	0.22
> CCOC(=O)C1SC(c2ccc(Cl)cc2)C(C#N)C1(O)c1ccccc1 (centres undefined)
→ -0.66	nt
> CC(C)CCNC(=O)c1cc(S(=O)(=O)N2CCOCC2)cn1C
→ nt	1.8
> COC(=O)c1cc(Nc2nc3ccccc3nc2NS(=O)(=O)c2ccccc2)ccc1Cl
→ -3.3	nt
> C[C@@H]1CC2OC(=O)[C@@]3(C)CCC[C@@](C)(C23)[C@@]1(O)CCc1ccoc1 (some centres undefined)
→ -1.1	1.1
> CCN1C(=O)C(O)(CC(=O)c2ccc(C)cc2C)c2cc(Br)ccc21 (centres undefined)
→ 0.8	-0.28
> CN(C)CCCNc1ccc([N+](=O)[O-])c(N2CCOCC2)c1C#N
→ -1.5	nt
> Cc1cc(=O)n2nc(N3CCCC(C(=O)NCCN4CCCC4)C3)sc2n1 (centres undefined)
→ -0.38	0.42
> O=C(c1nnc(Cc2c(F)cccc2Cl)o1)N1CCCC1
→ -0.31	-0.02
> O=C(Nc1nnc2n1CCS2)c1ccc(S(=O)(=O)N2CCOCC2)cc1
→ nt	0.97
> Cc1ccnc(N2CCCC(C(=O)NC(C)C)C2)n1 (centres undefined)
→ nt	1.9
> COC(=O)c1cc(NC(=O)N2c3ccccc3Sc3ccccc32)cc(C(=O)OC)c1
→ -1.4	1.1
> Cc1cc2oc3c(c(=O)c2cc1C)C(c1cccc(Cl)c1)N(CCCn1ccnc1)C3=O (centres undefined)
→ -2.8	-0.4
> O=C(c1cccnc1)N(c1ccc2oc(=O)sc2c1)S(=O)(=O)c1cccc2cccnc12
→ -2	-1.4
> NC(=O)C1CCN(C(=O)c2cnn(-c3ccc(F)cc3)c2-n2cccc2)CC1
→ nt	1.5
> C=C1C[C@]23C[C@@]1(O)CC[C@H]2[C@@]12C=C[C@H](O)[C@@](C)(C(=O)O1)[C@H]2[C@@H]3C(=O)O
→ nt	1
> COCCNC(=O)CCc1c(C)nc2c(c(C)nn2C)c1C
→ -0.26	0.23
> CC1CCN(S(=O)(=O)N2CCCC(C(=O)Nc3ccc(Br)cc3F)C2)CC1 (centres undefined)
→ nt	-0.51

# Additional structures follow.
# Order of values: CDC25B-CDK2 inh	TAR Tat displ
> O=C(O)c1cccc(Cn2cnc([N+](=O)[O-])n2)c1
→ 0.16	1.8
> CC(=O)Oc1c(C)ncc2c1COC(C)(C)OC2
→ 0.28	nt
> O=C(Nc1ccc2nc3n(c(=O)c2c1)CCCCC3)C(=O)N1CCCc2ccccc21
→ -0.48	-0.03
> O=C(CC1SC(=NC2CC3C=CC2C3)NC1=O)Nc1cc(Cl)ccc1Cl (centres undefined)
→ -0.71	nt
> Cn1c(=O)c2c(nc(NCc3ccc4c(c3)OCO4)n2Cc2ccc(F)cc2)n(C)c1=O
→ 0.2	nt
> COCCn1c(SC(C(C)=O)C(=O)N(C)C)nnc1-c1c[nH]c2ccccc12 (centres undefined)
→ -0.83	nt
> Fc1ccc(CNc2c3c(nc4ncnn24)CCC3)cc1
→ nt	1
> O=C(Cn1c(=O)c(CNc2ccccc2)cc2cc3c(cc21)OCCO3)Nc1ccccc1Cl
→ nt	-7.7
> Cc1c2cnn(-c3ccccc3)c(=O)c2c(C)n1C(C)C(=O)Nc1ccccc1F (centres undefined)
→ 1	1.1
> CCN1CCCC1CNC(=O)c1cc2c(s1)-c1ccccc1SC2 (centres undefined)
→ 0.37	-0.76
> COC(=O)COc1ccc2c(=O)c(Oc3cc(C)cc(C)c3C)coc2c1
→ -1.1	0.12
> Cc1nc2sc(C(c3ccccc3)N3CCN(Cc4ccccc4)CC3)c(O)n2n1 (centres undefined)
→ -0.43	nt
> COc1cc(C2CC(=O)N3CN(c4ccc(F)cc4)CSC3=C2C#N)ccc1O (centres undefined)
→ 3.3*	29*
> Cc1ccc(C(=O)CCc2nc3ccccc3s2)cc1C
→ -1.6	0.19
> O=C(C1CCN(c2nc3cccnc3s2)CC1)N1CCN(C2CCCCC2)CC1
→ nt	-1.9
> CCC(C)NC(=O)NC1C(NC(=O)NC(C)CC)N(C)C(=O)N1C (centres undefined)
→ 0.08	-0.39
> COC(=O)c1scc2c(N3CCC(n4cccc4)CC3)cc(C(F)(F)F)nc12
→ -0.81	nt
> Cc1ccccc1OCC(=O)OCc1cc(=O)n2nc(C(C)C)sc2n1
→ nt	0.92
> O=C(Nc1ccccc1C(=O)NC1CC1)C1=CSCCO1
→ nt	1.1
> COc1cc(NS(C)(=O)=O)ccc1Nc1c2ccccc2nc2ccccc12
→ -0.96	nt

# Remaining list, next part
# Order of values: CDC25B-CDK2 inh	TAR Tat displ
> Cc1cc(C)nc(SCc2ccc(F)cc2)n1
→ -1.3	-0.49
> Cc1nc2ccc(S(=O)(=O)NCCC(C)C)cc2o1
→ nt	1.4
> CN(C)CCCN(C(=O)c1ccc2c(c1)OCCO2)c1nc2c(F)cccc2s1
→ nt	2.6
> O=C(CSc1nc2ccccc2c(=O)n1Cc1ccco1)N1CCCc2ccccc21
→ -2.7	0.82
> Cc1c(Cl)c([N+](=O)[O-])nn1CC(=O)NCCCn1ccnc1
→ -0.34	0.65
> CCc1cc2c(=O)c(-c3nc(C)cs3)c(C(=O)O)oc2cc1O
→ -1.7	-0.95
> Cc1ccc2nc(Nc3ccc(F)cc3F)c3nncn3c2c1
→ -0.5	0.47
> Cn1c(=O)oc2cc(S(=O)(=O)N3CCCC(C(=O)NCCCN4CCCC4=O)C3)ccc21 (centres undefined)
→ 0.33	nt
> COC(=O)C(C)Sc1nnc(-c2ccc(Br)cc2)o1 (centres undefined)
→ -1	1.7
> Cc1nn(CCCC(=O)N2CCCCC2)c(=O)c2c1sc1ccccc12
→ -0.33	1.9
> O=C1c2oc3ccccc3c(=O)c2C(c2ccc(O)cc2)N1Cc1ccc(F)cc1 (centres undefined)
→ -0.41	0.8
> Cn1c(=O)n(Cc2ccc(Cl)cc2)c(=O)c2c1ncn2CCO
→ -0.96	-0.01
> Cc1ccccc1Cc1c(C)nc2c(C(=O)NCc3cccnc3)cnn2c1C
→ -0.3	nt
> CCOc1ccc(N(C)C(=O)CCc2nnc3ccc(N4CCCC4)nn23)cc1
→ nt	-0.54
> CN(CCCNC(=O)CSc1ncnc2c1sc1cccc(F)c12)C1CCCCC1
→ nt	0.6
> COc1ccc(Oc2nc(N3CCCC3)c(Cl)c3c2N(CC2CCCO2)CCS3(=O)=O)cc1 (centres undefined)
→ 9.4*	-1.2
> CCOC(=O)CC1Sc2ccccc2NC1=S (centres undefined)
→ -0.93	nt
> CC(C)OC(=O)CSc1nc(-c2ccccc2)c(C#N)c(=O)[nH]1
→ -2.8	1.9
> COc1ccc(-c2nc3c4c5c(sc4ncn3n2)CCCC5)cc1OC
→ 0.69	0.6
> Cc1ccc(NC2=NC(C)(C)N=C(N)N2)cc1C
→ 2.9	nt

# (listing goes on)
# Order of values: CDC25B-CDK2 inh	TAR Tat displ
> O=C(C1CC1)N1CCc2cc(Br)cc(S(=O)(=O)N3CCOCC3)c21
→ -0.51	nt
> C/C(=N\OC(=O)c1ccc(C)cc1)c1csc(-c2ccccc2)n1
→ -0.57	nt
> COc1ccc(C2=NS(=O)(=O)N(C)C(C(=O)NCc3ccc4c(c3)OCO4)=C2)cc1OC
→ -1.3	1.4
> CN(C)C(=O)c1ccc2c(c1)N(CC(=O)NC1CCCCC1)C(=O)C1CCCCN21 (centres undefined)
→ nt	0.83
> COc1ccc(O)c(C2=NN3C(C2)c2cccc(OC)c2OC3c2ccccc2)c1 (centres undefined)
→ -0.41	-2.3
> CCCc1nn2c(=O)cc(CSc3nnc(N)s3)nc2s1
→ -0.94	0.68
> C=CCNC(=O)c1ccc(C(F)(F)F)nc1C
→ -1.4	nt
> COc1ccc(C2Nc3ccccc3NC3=C2C(=O)CC(c2ccccc2)C3)c(OC)c1 (centres undefined)
→ -2.7	-6.5
> CC(=O)N1CCc2cc(S(=O)(=O)CCC(=O)N(C)Cc3ccco3)ccc21
→ nt	-0.53
> O=C(CSc1nc2ccccc2s1)N1CCN(CCO)CC1
→ -1.8	-0.02
> COCCNC(=O)CCCn1nc(C)n2c(cc3occc32)c1=O
→ -1.2	-0.47
> CN1CCc2c(sc(-n3cccc3)c2CNC(=O)Nc2ccccc2)C1
→ nt	-7.7
> O=C1CCCC2=C1C(c1ccc3c(c1)OCO3)n1nc(-c3cccc(Cl)c3)nc1N2 (centres undefined)
→ 1.3	0.98
> Cc1ccc(S(=O)(=O)Nc2ccc(-c3cn4ccccc4n3)cc2)cc1
→ -0.56	3.4
> CCCCCOC(=O)C1=C(C)NC2=C(C(=O)CC(C)(C)C2)C1c1cc2c(cc1Cl)OCO2 (centres undefined)
→ 0.27	0.84
> Cc1cc2n(n1)CCC(=O)N2CCCC(=O)N1CCN(C)CC1
→ nt	0.48
> CC1=C(C#N)C(=O)NC(=O)/C1=C\c1ccc(-c2ccccc2)o1
→ -5.6	nt

# Random draw from the library. About 0.87% of those tested had a hit in this group.
